Assay outcomes deposited in PubChem by Broad Institute.
UUG fidelity: alters start codon recognition fidelity in yeast; S. cerevisiae UUG-firefly luciferase reporter, luminescence/redox ratio; activity score, % at 18.7 µM; 0.13% of 350,000 active; AID 602363;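 active = replicate mean at a twofold rise or more, about +100% in these data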;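 note: firefly luciferase made from a UUG start codon reports start codon fidelity; reporter light over untreated wells divided by growth signal over untreated wells; some hits fall short of that in this replicate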
HIV Env fusion: blocks HIV Env-driven cell-cell fusion; HeLa-JRFL Env/CEM21 cell fusion, luciferase; inhibition, % at 12.3 µM; 1.1% of 360,000 active;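 active = mean replicate inhibition score of at least 50 and every replicate individually at or above 50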;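 note: 0% = plate neutral controls and 100% = maraviroc near 300 nM; one replicate is shown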
The depositor's hits bear a star; & = joins results of further samples; [ ] = remark or other dose. A portion of the library; rates above refer to the full screens.

Preview (eleven entries):
SMILES	UUG fidelity	HIV Env fusion
CNC[C@@H]1OCCCC[C@H](C)Oc2ccc(NC(=O)Nc3ccc(C(F)(F)F)cc3)cc2C(=O)N([C@H](C)CO)C[C@@H]1C	6	-4[16.7 µM]
CCCNC(=O)C[C@H]1C[C@H]2c3cc(NC(=O)c4cccnc4)ccc3O[C@H]2[C@@H](CO)O1	-22	8[16.7 µM]
C[C@H](CO)N1C[C@H](C)[C@H](CN(C)C(=O)CC2CC2)Oc2ncc(C#CCC3CCCC3)cc2C1=O	12	11[16.7 µM]
C[C@H]1CN([C@@H](C)CO)C(=O)c2cccc(NS(=O)(=O)c3cn(C)cn3)c2O[C@H]1CN(C)Cc1ccc2c(c1)OCO2	-10	6[16.7 µM]
O=C(NCC[C@H]1CC[C@H](NS(=O)(=O)Cc2ccccc2)[C@@H](CO)O1)C1CCCCC1	17	-7[16.7 µM]
C[C@H](CO)N1C[C@H](C)[C@@H](CN(C)Cc2ccc(C(F)(F)F)cc2)Oc2c(NS(=O)(=O)c3cn(C)cn3)cccc2C1=O	-8	10[16.7 µM]
Cc1noc(C)c1NC(=O)Nc1cccc2c1O[C@H](CN(C)C(=O)Nc1c(C)noc1C)[C@H](C)CN([C@@H](C)CO)C2=O	7	-8[16.7 µM]
O=C(NCC[C@@H]1CC[C@H](NC(=O)c2ccc3c(c2)OCO3)[C@@H](CO)O1)Nc1ccc(Cl)cc1	7	-2[16.7 µM]
C[C@]12CCC(=O)N1CCc1c2[nH]c2ccccc12	-16&-3	7&-12[16.7 µM]
COC(=O)C[C@@H]1CC[C@H]2[C@@H](COc3ccc(NC(=O)Nc4cccc(Cl)c4)cc3C(=O)N2C)O1	12	-8[16.7 µM]
C[C@H](CO)N1C[C@H](C)[C@@H](CN(C)C(=O)Nc2ccccc2)Oc2ccc(N(C)C)cc2CC1=O	-2	-5[16.7 µM]

This part in full, previewed entries included:
SMILES	UUG fidelity	HIV Env fusion
CNC[C@@H]1OCCCC[C@H](C)Oc2ccc(NC(=O)Nc3ccc(C(F)(F)F)cc3)cc2C(=O)N([C@H](C)CO)C[C@@H]1C	6	-4[16.7 µM]
CCCNC(=O)C[C@H]1C[C@H]2c3cc(NC(=O)c4cccnc4)ccc3O[C@H]2[C@@H](CO)O1	-22	8[16.7 µM]
C[C@H](CO)N1C[C@H](C)[C@H](CN(C)C(=O)CC2CC2)Oc2ncc(C#CCC3CCCC3)cc2C1=O	12	11[16.7 µM]
C[C@H]1CN([C@@H](C)CO)C(=O)c2cccc(NS(=O)(=O)c3cn(C)cn3)c2O[C@H]1CN(C)Cc1ccc2c(c1)OCO2	-10	6[16.7 µM]
O=C(NCC[C@H]1CC[C@H](NS(=O)(=O)Cc2ccccc2)[C@@H](CO)O1)C1CCCCC1	17	-7[16.7 µM]
C[C@H](CO)N1C[C@H](C)[C@@H](CN(C)Cc2ccc(C(F)(F)F)cc2)Oc2c(NS(=O)(=O)c3cn(C)cn3)cccc2C1=O	-8	10[16.7 µM]
Cc1noc(C)c1NC(=O)Nc1cccc2c1O[C@H](CN(C)C(=O)Nc1c(C)noc1C)[C@H](C)CN([C@@H](C)CO)C2=O	7	-8[16.7 µM]
O=C(NCC[C@@H]1CC[C@H](NC(=O)c2ccc3c(c2)OCO3)[C@@H](CO)O1)Nc1ccc(Cl)cc1	7	-2[16.7 µM]
C[C@]12CCC(=O)N1CCc1c2[nH]c2ccccc12	-16&-3	7&-12[16.7 µM]
COC(=O)C[C@@H]1CC[C@H]2[C@@H](COc3ccc(NC(=O)Nc4cccc(Cl)c4)cc3C(=O)N2C)O1	12	-8[16.7 µM]
C[C@H](CO)N1C[C@H](C)[C@@H](CN(C)C(=O)Nc2ccccc2)Oc2ccc(N(C)C)cc2CC1=O	-2	-5[16.7 µM]
COc1ccc(NC(=O)Nc2ccc3c(c2)CC(=O)N([C@H](C)CO)C[C@H](C)[C@H](CN(C)S(=O)(=O)c2cn(C)cn2)O3)cc1	6	19[16.7 µM]
COc1cccc(S(=O)(=O)N[C@H]2C=C[C@@H](CC(=O)NCc3ccc(Cl)cc3)O[C@@H]2CO)c1	-11	-17[16.7 µM]
COc1ccc(NC(=O)N[C@@H]2CC[C@@H](CCn3cc(-c4ccccc4F)nn3)O[C@H]2CO)cc1	5	3[16.7 µM]
C[C@H](CO)N1C[C@H](C)[C@H](CN(C)S(=O)(=O)c2ccc(Cl)cc2)OCCCC[C@H](C)Oc2ccc(N(C)C)cc2C1=O	-10	-3[16.7 µM]
CCC(=O)N(C)C[C@H]1Oc2cc(C#CC3CC3)ccc2S(=O)(=O)N([C@@H](C)CO)C[C@H]1C	4	18[16.7 µM]
C[C@@H]1CCCCO[C@@H](CN(C)C(=O)Nc2ccc3c(c2)OCO3)[C@H](C)CN([C@H](C)CO)C(=O)c2cc(NC(=O)Nc3ccc(F)cc3)ccc2O1	-10	-24[16.7 µM]
C[C@H](CO)N1C[C@H](C)[C@@H](CN(C)CC2CC2)OCCCC[C@H](C)Oc2ccc(NC(=O)Nc3cccc4ccccc34)cc2C1=O	36	19[16.7 µM]
O=C(C[C@@H]1CC[C@H](NC(=O)Nc2cc(F)ccc2F)[C@H](CO)O1)Nc1ccccc1	-3	-7[16.7 µM]
CCCC#Cc1ccc2c(c1)O[C@@H](CN(C)Cc1ccccn1)[C@H](C)CN([C@H](C)CO)S2(=O)=O	0	5[16.7 µM]
CO[C@@H]1CN(C)C(=O)c2ccc(NS(=O)(=O)c3ccccc3F)cc2OC[C@@H](C)N(S(C)(=O)=O)C[C@H]1C	-6	-17[16.7 µM]
C[C@H](CO)N1C[C@H](C)[C@@H](CN(C)S(=O)(=O)c2ccc(Cl)cc2)Oc2ccc(NC(=O)NC3CCCCC3)cc2CC1=O	-6	4[16.7 µM]
CCCC#Cc1cnc2c(c1)C(=O)N([C@H](C)CO)C[C@@H](C)[C@@H](CN(C)C(=O)Nc1cc(F)ccc1F)O2	21	2[16.7 µM]
C[C@@H]1CN([C@H](C)CO)C(=O)Cc2cc(NC(=O)CCC(F)(F)F)ccc2O[C@@H]1CN(C)Cc1ccc(Cl)c(Cl)c1	-1	-7[16.7 µM]
CCCNC(=O)C[C@H]1CC[C@@H]2[C@H](COC[C@H](O)CN2C(=O)c2ccc(F)cc2)O1	5	-15[16.7 µM]
C[C@H](CO)N1C[C@H](C)[C@@H](CN(C)C(=O)c2cccc(F)c2)Oc2ncc(-c3cccnc3)cc2C1=O	0	-12[16.7 µM]
COc1ccc(S(=O)(=O)N(C)C[C@@H]2Oc3ccc(NS(=O)(=O)c4ccc(Cl)cc4)cc3CC(=O)N([C@H](C)CO)C[C@@H]2C)cc1	-9	24[16.7 µM]
C[C@H](CO)N1C[C@H](C)[C@H](CN(C)C(=O)Nc2ccccc2)Oc2ncc(-c3cccc(F)c3)cc2C1=O	-13	6[16.7 µM]
C[C@@H]1CCCCO[C@@H](CN(C)Cc2ccc(C(=O)O)cc2)[C@H](C)CN([C@H](C)CO)C(=O)c2cc(NC(=O)c3ccncc3)ccc2O1	1	-17[16.7 µM]
CCCNC(=O)Nc1ccc2c(c1)OC[C@@H](C)N(C)C[C@@H](C)[C@H](OC)CN(C)C2=O	13	5[16.7 µM]
COc1ccc(S(=O)(=O)Nc2ccc3c(c2)C(=O)N([C@H](C)CO)C[C@@H](C)[C@H](CN(C)C(=O)Nc2ccc(F)cc2)OCCCC[C@@H](C)O3)cc1	-4	-110[16.7 µM]
C[C@H](CO)N1C[C@H](C)[C@H](CN(C)S(=O)(=O)c2cccs2)Oc2ccc(NC(=O)Nc3ccccc3)cc2C1=O	13	30[16.7 µM]
COCC(=O)N(C)C[C@@H]1Oc2cc(C#C[C@@H](C)O)ccc2S(=O)(=O)N([C@H](C)CO)C[C@@H]1C	-3	1[16.7 µM]
C[C@H]1CN([C@@H](C)CO)C(=O)Cc2cc(NC(=O)Nc3ccc(F)cc3)ccc2O[C@@H]1CN(C)Cc1ccc(C(=O)O)cc1	-14	-3[16.7 µM]
COCc1cn(CC[C@H]2CC[C@@H](NC(=O)Nc3ccc4c(c3)OCO4)[C@H](CO)O2)nn1	-20	0[16.7 µM]
C[C@H]1CN([C@@H](C)CO)C(=O)c2cc(C3=CCCCC3)cnc2O[C@H]1CN(C)Cc1ccccc1C(=O)O	7	3[16.7 µM]
O=C(C[C@@H]1CC[C@H]2[C@@H](COC[C@H](O)CN2CC2CCOCC2)O1)NCC1CC1	8	20[16.7 µM]
C[C@@H]1CN([C@@H](C)CO)S(=O)(=O)c2ccc(-c3cccc(C(=O)N(C)C)c3)cc2O[C@@H]1CN(C)C	-6	-26[16.7 µM]
C[C@H]1CCCCO[C@H](CN(C)Cc2ccc(C(F)(F)F)cc2)[C@@H](C)CN([C@@H](C)CO)C(=O)c2cc(NC(=O)Nc3ccc(C(F)(F)F)cc3)ccc2O1	-7	37[16.7 µM]
C[C@@H]1CCCCO[C@@H](CN(C)C(=O)Nc2ccc3c(c2)OCO3)[C@@H](C)CN([C@@H](C)CO)C(=O)c2cc(NC(=O)C3CCCCC3)ccc2O1	-8	-6[16.7 µM]
C[C@@H](NC(=O)C[C@@H]1CC[C@H](NC(=O)Cc2ccccn2)[C@H](CO)O1)c1ccccc1	-5	-13[16.7 µM]
C[C@@H]1CN([C@H](C)CO)C(=O)c2cc(NS(=O)(=O)c3ccccc3)ccc2O[C@@H](C)CCCCO[C@H]1CN(C)C(=O)C1CCCCC1	18	5[16.7 µM]
CNC[C@@H]1Oc2cc(-c3ccccc3OC)ccc2S(=O)(=O)N([C@@H](C)CO)C[C@H]1C	26	-41[16.7 µM]
OC[C@@H]1CN(Cc2ccccc2)C[C@H](n2cnc3c(NCc4ccncc4)ncnc32)O1	-15	59*
C[C@@H]1CN([C@H](C)CO)C(=O)Cc2cc(NC(=O)Cc3cn(C)c4ccccc34)ccc2O[C@H]1CN(C)S(=O)(=O)c1ccc(F)cc1	-3	-6[16.7 µM]
C[C@H](CO)N1C[C@H](C)[C@H](CN(C)S(=O)(=O)c2ccccc2)Oc2ccc(NS(=O)(=O)c3ccccc3)cc2CC1=O	4	91*[16.7 µM]
CC(C)NC(=O)N(C)C[C@@H]1Oc2ccc(NC(=O)C3CCCCC3)cc2C(=O)N([C@@H](C)CO)C[C@@H]1C	8	2[16.7 µM]
Cc1noc(C)c1S(=O)(=O)Nc1cccc2c1O[C@H](CN(C)S(=O)(=O)c1ccc(F)cc1)[C@H](C)CN([C@H](C)CO)C2=O	1	0[16.7 µM]
C[C@H]1CCCCO[C@H](CN(C)C(=O)Nc2ccc(C(F)(F)F)cc2)[C@@H](C)CN([C@@H](C)CO)C(=O)c2cc(NC(=O)Nc3ccc4c(c3)OCO4)ccc2O1	-14	72*[16.7 µM]
Cc1ccccc1S(=O)(=O)N1[C@H](C#N)[C@H](c2ccc(C#CC3CCCCC3)cc2)[C@@H]1CO	-14	16[16.7 µM]
(listing goes on)
SMILES	UUG fidelity	HIV Env fusion
Cc1ccc(S(=O)(=O)Nc2ccc3c(c2)C(=O)N([C@@H](C)CO)C[C@@H](C)[C@H](CN(C)Cc2ccc(C(F)(F)F)cc2)OCCCC[C@H](C)O3)cc1	8	-6[16.7 µM]
Cc1noc(C)c1NC(=O)N(C)C[C@@H]1OCCCC[C@@H](C)Oc2ccc(NC(=O)Nc3ccc4c(c3)OCO4)cc2C(=O)N([C@H](C)CO)C[C@@H]1C	-2	-3[16.7 µM]
O=C(C[C@@H]1CC[C@H]2[C@@H](COC[C@@H](O)CN2S(=O)(=O)c2ccccc2)O1)NCCN1CCCCC1	2	11[16.7 µM]
CN(C)C(=O)C[C@@H]1CC[C@@H](NC(=O)NC2CCCCC2)[C@H](CO)O1	-2	-5[16.7 µM]
C[C@@H]1CCCCO[C@H](CN(C)Cc2ccc(C(F)(F)F)cc2)[C@H](C)CN([C@@H](C)CO)C(=O)c2cc(NS(=O)(=O)c3ccccc3)ccc2O1	16	43[16.7 µM]
CCS(=O)(=O)Nc1ccc2c(c1)C(=O)N(C)[C@@H]1CC[C@@H](CC(=O)Nc3ccccc3)O[C@@H]1CO2	9	-1[16.7 µM]
CC(C)NC(=O)Nc1cccc2c1O[C@H](CN(C)C(=O)Nc1ccc(C(F)(F)F)cc1)[C@H](C)CN([C@@H](C)CO)C2=O	4	-25[16.7 µM]
COc1ccc(S(=O)(=O)N(C)C[C@@H]2Oc3c(NC(=O)Nc4ccc(C(F)(F)F)cc4)cccc3C(=O)N([C@H](C)CO)C[C@H]2C)cc1	0	-37[16.7 µM]
O=C(C1=C[C@H](c2ccc3c(c2)Cc2ccccc2-3)C[C@H](OCCCCO)O1)N1CCCCC1	2	1[16.7 µM]
COc1cccc(-c2ccc3c(c2)O[C@@H](CN(C)Cc2cccnc2)[C@H](C)CN([C@@H](C)CO)S3(=O)=O)c1	-6	33[16.7 µM]
C[C@@H]1CN([C@H](C)CO)S(=O)(=O)c2ccc(C#CC3(O)CCCC3)cc2O[C@@H]1CN(C)C(=O)Nc1cccc(F)c1	9	-52[16.7 µM]
CC(C)CC#Cc1cnc2c(c1)C(=O)N([C@@H](C)CO)C[C@H](C)[C@@H](CN(C)C(=O)c1ccc3c(c1)OCO3)O2	20	-18[16.7 µM]
C[C@@H]1CN([C@@H](C)CO)C(=O)c2cc(/C=C/c3ccccc3)cnc2O[C@H]1CN(C)Cc1ccncc1	-11	-7[16.7 µM]
C[C@@H]1CN([C@@H](C)CO)S(=O)(=O)c2ccc(-c3ccc(C#N)cc3)cc2O[C@@H]1CN(C)CC1CC1	0	-6[16.7 µM]
C[C@H](CO)N1C[C@H](C)[C@H](CN(C)S(C)(=O)=O)Oc2ccc(N(C)C)cc2C1=O	-12	13[16.7 µM]
CC(=O)N(C)C[C@H]1Oc2cc(-c3ccccc3C)ccc2S(=O)(=O)N([C@H](C)CO)C[C@@H]1C	32	-6[16.7 µM]
O=C(C[C@@H]1CC[C@@H](NC(=O)C2CC2)[C@@H](CO)O1)NCc1ccncc1	-22	-6[16.7 µM]
